From PubChem BioAssay
nsP2pro inh: Primary qHTS for inhibitors of NSP2Pro chikungunya virus (CHIKV); Polyprotein P1234 (Chikungunya virus (strain S27-African prototype)), Q8JUX6; FRET peptide cleavage, nsP2pro, fluorescence 1 h; Potency, µM (top dose mostly 24.9 µM), without a hit: top-dose activity change, negative = inhibition, hits mostly inhibitors; 31,000 tested, 1.1% active; active means well fitted inhibition curve with a large enough effect; inconclusive means small, poorly fitted or top-dose-only effect; inactive means no such curve, though single readings can be large or run the other way; note: nearly all actives have a fitted effect of over 60% in size; a reference inhibitor and vehicle were the controls
* marks the source's active call; other numbers are inactive results; i = inactive; ? = inconclusive; [ ] = remark or other dose. % is set by controls: 0 for no effect and ±100 for the full control effect; potency is the fitted concentration of half-maximal effect. These rows are one share of the data; the hit share may differ from the screen's.

SMILES	nsP2pro inh
CCOc1ccc(NC(=O)Cn2c(=O)n(CCCC(=O)NCCc3ccc(Cl)cc3)c(=O)c3ccccc32)cc1	-12%
COc1ccc(N2CCN(C(=O)COCc3cc(-c4ccc5c(c4)OCO5)on3)CC2)cc1	-16%
CCOc1ccc(CCNC(=O)c2cc3ccncc3n2Cc2cccc(C)n2)cc1OCC	i
CC(C)CC(=O)Nc1c(C(=O)N2CCN(c3ccccc3F)CC2)oc2ccccc12	-11%
CC1(CCC(=O)N2CCCC2C(=O)Nc2ccccc2Oc2cccnc2)CC1 (stereo not drawn)	3%
c1ccc2sc(SNC3CCCCC3)nc2c1	-18%[39.2 µM]
C#C[C@]1(O)CC[C@H]2[C@@H]3CCc4cc(O)ccc4[C@H]3CC[C@@]21C	18%
O=C(Nc1ccc(N2CCC(N3CCCCC3)CC2)c(C(=O)O)c1)c1ccccc1	11µM*
COc1ccc(NC(=O)CCS(=O)(=O)c2cc3c4c(c2)CCN4C(=O)CC3)c(OC)c1	-8%
CN(Cc1cccc(N2CCN(C(c3ccccc3)c3ccccc3)CC2)c1)[S+](C)(=O)[O-]	-10%
CC1(C)CC2C3=CCC4C5(C)CCC(OC6OC(CO)C(O)C(OC7OC(CO)C(O)C(OC8OC(CO)C(O)C(OC9OC(COC%10OC(CO)C(O)C(O)C%10O)C(O)C(O)C9O)C8O)C7O)C6O)C(C)(C)C5CCC4(C)C3(C)CCC2(C(=O)O)CC1O (stereo not drawn)	68%[activator][5.1 µM]
Oc1ccc(COCc2ccc(F)cc2)c2cccnc12	i
O=C(CSCc1nc2cccnc2n1C1CCCCC1)NCc1cccc(Cl)c1	-14%
COCCn1cnnc1C(C)NC(=O)c1cn(C2CCC(N)CC2)nn1 (stereo not drawn)	-23%
O=C(c1ccc(CSc2nc3ccncc3n2Cc2ccccc2F)cc1)N1CCCCCC1	16%
Cc1ccc(-c2c(-c3nn(C)c4ncnc(N5CCC(N6CCCCC6)C5)c34)cnn2C)cc1 (stereo not drawn)	3%
Cc1ccc(CCNC(=O)C2CCCN(Cc3nc(-c4cccc(Cl)c4)oc3C)C2)cc1 (stereo not drawn)	-25%
O=C(Nc1ccc2c(c1)OCCO2)Nc1nnc(-c2ccncc2)s1	i
CCOC(=O)c1cc(S(=O)(=O)NCc2ccc(OC)cc2)[nH]n1	?
COc1cc(C2C(C(=O)Nc3ccccc3C)=C(C)Nc3nc(SCc4cc(C)ccc4C)nn32)ccc1O (stereo not drawn)	-34%
O=S1(=O)CC(COCc2ccccc2)CN1c1ccccc1 (stereo not drawn)	0%
CCCCOC(=O)c1ccc(NC(=O)/C(C#N)=C/c2ccc(C)o2)cc1	-6%
COc1ccc(N2CC(NC(=O)COc3ccccc3F)CC2=O)cc1OC (stereo not drawn)	-9%
Cc1cccc(C)c1OP(=O)(OCc1c(-c2ccccc2)no[n+]1[O-])Oc1c(C)cccc1C	-7%
CCOc1ccccc1NC(=O)Cn1c(=O)n(Cc2ccco2)c(=O)c2cccnc21	-8%
Cc1ccccc1NC(=O)CN1C(=O)N/C(=C\c2cn(-c3cccc(C(=O)O)c3)cn2)C1=O	-4%
COCCN(C(=O)c1cc(OC)c(OC)c(OC)c1)c1nc(-c2ccccc2)cs1	-18%
O=C(C1CCCN1Cc1ccc(-c2cncnc2)cc1)N1CCOCC1 (stereo not drawn)	0%
COc1ccc(OCc2ccc(-c3nc(C#N)c(NCc4cccnc4)o3)o2)cc1	20%
CCOC(=O)C1CCCN(c2ncnc3c2cnn3-c2ccc(C)c(Cl)c2)C1 (stereo not drawn)	-11%

Single entries from the results shown.
Under nsP2pro inh, CCOC(=O)C1CCCN(c2ncnc3c2cnn3-c2ccc(C)c(Cl)c2)C1 (stereo not drawn) has the entry -11%
Under nsP2pro inh, Cc1ccc(CCNC(=O)C2CCCN(Cc3nc(-c4cccc(Cl)c4)oc3C)C2)cc1 (stereo not drawn) has the entry -25%
Under nsP2pro inh, O=C(C1CCCN1Cc1ccc(-c2cncnc2)cc1)N1CCOCC1 (stereo not drawn) has the entry 0%
Under nsP2pro inh, COCCN(C(=O)c1cc(OC)c(OC)c(OC)c1)c1nc(-c2ccccc2)cs1 has the entry -18%

Further entries.
SMILES	nsP2pro inh
O=S(=O)(NCC1Cn2cccc2CN1Cc1ccccc1)c1ccccc1 (stereo not drawn)	-2%
Cc1ccc(NC(=O)CN2C(=O)N/C(=C\c3cccn3-c3ccc(P(=O)(O)O)cc3)C2=O)cc1	-11%
CC(C)c1c(NC(=O)Nc2ccc(Cl)cc2)c(=O)n(-c2ccccc2)n1C	0%
COc1ccc(-c2cc(C(F)(F)F)n3nc(C(=O)Nc4cccc(C(F)(F)F)c4)c(Br)c3n2)cc1	-23%
FC(F)(F)c1cccc(-c2nccn3c(C4CN(Cc5ccc6cn[nH]c6c5)C4)ncc23)c1	i
CS(=O)(=O)c1ccc(C(=O)OCC(=O)N2Cc3ccccc3C2)cc1[N+](=O)[O-]	4%
O=c1cc(N2CCOCC2)oc2c1ccc1ccccc12	3%
COc1ccc(NC(=O)CSC2=Nc3ccccc3C3=NC(CCC(=O)NCc4cccs4)C(=O)N23)cc1 (stereo not drawn)	-18%
COc1cc(O)c(C(CC(=O)N2CCC(C)CC2)c2ccc(C)cc2)c(OC)c1 (stereo not drawn)	-6%
CC(=O)[C@H]1CC[C@H]2[C@@H]3CC=C4C[C@@H](O)CC[C@]4(C)[C@H]3CC[C@]12C	13%
CCOc1ccc(CNC(=O)C2CCCN(S(=O)(=O)c3ccc4c(ccn4C)c3)C2)cc1 (stereo not drawn)	-18%
CCC(=O)N1CCc2cc(S(=O)(=O)NC(Cc3ccccc3)C(=O)Nc3ccc(Cl)cc3)ccc21 (stereo not drawn)	-3%
CCOC(=O)c1c(SCC(=O)Nc2cc(Cl)cc(Cl)c2)nc(=O)[nH]c1C	-20%
CCCCCC/C=C\CCCCCCCC(=O)O	10%
C=CCN1CC2(CCC1=O)CCN(C(=O)CC(C)n1ccnc1C)CC2 (stereo not drawn)	i
C=CCN1CCN(C(=O)C2N(c3ccc(OC)cc3)C(=O)C23CCCCC3)CC1 (stereo not drawn)	5%
O=C(c1cccc(Cn2cccn2)c1)N1CCOC(c2ccc(Cl)cc2)C1 (stereo not drawn)	-8%
ClC1C(Cl)C(Cl)C(Cl)C(Cl)C1Cl (stereo not drawn)	-1%
CCCc1cc(=O)n2[nH]c(-c3ccc(C)cc3)nc2n1	-10%
C[C@@H]1CCC2C(C)(C)[C@H](O)CC[C@]2(C)[C@@]12Cc1c(O)cc3c(c1O2)CN(CCO)C3=O (stereo partly drawn)	-10%[10 µM]
CCC(C(=O)N1CCC2(CCC(=O)N(Cc3ccccn3)C2)CC1)n1cccn1 (stereo not drawn)	4%
COCC1CN(C2CCC2)CC12CCN(Cc1scnc1C)CC2 (stereo not drawn)	1%
C=C1CCC2[C@@](C)(C(=O)O)CCC[C@@]2(C)[C@@H]1CCc1ccoc1 (stereo partly drawn)	5%
COc1cc(O)c(C(CC(=O)N2CCCC(C(C)C)C2)c2ccc3c(c2)OCO3)c(OC)c1 (stereo not drawn)	-2%[39.2 µM]
COc1ccc(CNC(=O)Cc2c(C)c3c(cc(C)c4c(C)c(C)oc43)oc2=O)cc1	-20%
COc1cc(C(=O)NC2CCCNC2)cc(OC)c1OC (stereo not drawn)	2%
O=C(CN1C(=O)COc2ccc(S(=O)(=O)N3CCOCC3)cc21)Nc1ccc(F)c(Cl)c1	1%
CC(C)=CCc1c(O)cc2oc3cc(C)cc(O)c3c2c1C	20%
CCOc1ccc(-c2nn3ncccc3c2-c2ccc(S(C)(=O)=O)cc2)cc1	22%
C=C(C)C(=O)O[C@H]1[C@H]2C(=C)C(=O)O[C@@H]2/C=C(\CO)CC/C=C(/C=O)[C@@H]1O	-12%
CCCNC(=O)N1CCOC[C@H](Oc2ccc(OC)cc2)C1	5%[39.2 µM]
Cc1ccccc1OC(=O)CSc1nnc(-c2ccc(F)cc2)o1	-11%
Cc1ccc(NC(=O)c2cc(C)nn2-c2ccccc2)cc1	-6%
Cc1ccc(CC(=O)N2CCN(c3cc(C(F)(F)F)ncn3)CC2)cc1	i
Cc1cccc(NS(=O)(=O)c2ccc(NC(=O)N3CCCC3)cc2)c1	-11%
CC(C)(C)OC(=O)N1CCC(c2c(C(=O)Nc3cccc(C(F)(F)F)c3)cnn2-c2ccc(F)cc2F)CC1	45%[activator]
CCCS(=O)(=O)c1ncc(Cl)c(C(=O)Nc2scc(-c3ccccc3)c2C(=O)OCC)n1	23%
CC(CNC(=O)C1CCN(C(=O)N2CCOc3ccc(Cl)cc32)CC1)c1ccccc1 (stereo not drawn)	-8%
CC(=O)N(C1CC1)C1CCOC2(CCN(C(=O)c3sc(C)nc3C)CC2)C1 (stereo not drawn)	-2%
CCOCCCN(C(=O)Nc1ccc(Cl)cc1)C1CCN(C(C)=O)CC1	-10%
CCc1ccc(NC(=O)CN2C(=O)C(c3ccc(Cl)cc3)=NC23CCCCC3)cc1	-11%
CCOC(=O)c1ccccc1NC(=O)CSc1nc2cn(CC)nc2c(=O)n1Cc1ccc(Cl)cc1	-15%
CC(=O)SC[C@@H](C)C(=O)N1CCC[C@H]1C(=O)N[C@@H](Cc1ccccc1)C(=O)O	-2%
COc1cc(NC(=O)CSc2nc3nc(C)c(Cc4ccc(C)cc4)c(C)n3n2)cc(OC)c1	-9%
O=C(NNc1ccccc1)c1ccncc1	?

Grouped by structure, those above with a cyano group (two)
SMILES	nsP2pro inh
CCCCOC(=O)c1ccc(NC(=O)/C(C#N)=C/c2ccc(C)o2)cc1	-6%
COc1ccc(OCc2ccc(-c3nc(C#N)c(NCc4cccnc4)o3)o2)cc1	20%

(further entries)
SMILES	nsP2pro inh
Cc1ccc(C)c(S(=O)(=O)c2nnn3c2nc(NC2CCCC2)c2sccc23)c1	-15%
Cc1ccc(NC(=O)C2CCCN(c3nc4ccccc4s3)C2)c(C)c1 (stereo not drawn)	-25%
Cn1ccc(C(=O)NCc2nnc3n2C(C(=O)NCC2CC2)CC3)n1 (stereo not drawn)	7.9µM*
O=C(Nc1ccccc1C(=O)OCc1cc(=O)n2nc(C3CC3)sc2n1)c1cccc(Cl)c1	-24%
COc1ccccc1/C=C/c1nc(C#N)c(NCCc2ccccc2)o1	-26%
CCCCC1CCC(C(=O)Nc2ccc(S(=O)(=O)Nc3nccs3)cc2)CC1 (stereo not drawn)	-1%
Cc1ccc(C)c(OCCn2cc(C(=O)O)c3ccccc32)c1	-5%
C/C=C/C=C/C=C/C(=O)O[C@@H]1C=C(CO)C(O)(C(=O)O)[C@@]2(C)CCCC(C)(C)[C@H]12 (stereo partly drawn)	?
Cc1cc2c(c(=O)n(-c3ccc(F)cc3)c(=O)n2CC(=O)Nc2cccc(C#N)c2)n1C	1%
Cc1c(Cl)cccc1NC(=O)C(CCS(C)(=O)=O)N1Cc2ccccc2C1=O (stereo not drawn)	-18%
CC(C)CCN(Cc1ccco1)C(=O)c1cc2c(Cl)nc3ccccc3c2s1	-22%
COc1ccc(C(=O)N2CCC3(CC2)CCN(Cc2cccs2)c2ccccc2O3)cc1	-4%
N#Cc1nc(-c2cccc3ccccc23)oc1NCc1ccccc1	-6%
COc1ccc(CNS(=O)(=O)c2cc3c(cc2C)N(C)CCO3)cc1	-20%
COc1cccc(-n2c(SCC(=O)Nc3cccc(Cl)c3)nc3c(oc4ccccc43)c2=O)c1	-15%
O=S(=O)(c1ccccc1)N1CCN(c2nc(C3CC3)nc3ccccc23)CC1	-6%
C[C@@H]1N=C(N)NC(N(C)C)=N1	?
CCOC(=O)CSc1nc2ccc(NC(=O)c3ccccc3F)cc2s1	-29%
Cc1c(NC(=O)c2ccccc2)cc(C(C)C)c(O)c1S(=O)(=O)c1ccc(Cl)cc1	-10%
C#CCN(C)CC[C@@H]1CC[C@H](O)[C@@H](C(=O)NC2CCCCC2)O1	-4%[39.2 µM]
COc1ccc(Cl)cc1NC(=O)CSC1=Nc2ccccc2C2=NC(CC(=O)NC3CCCCC3)C(=O)N12 (stereo not drawn)	-8%
CCC(NS(=O)(=O)c1ccc(C(=O)NC2CC2)cc1)c1cnn(C)c1 (stereo not drawn)	-6%
CCOC(=O)c1ccc(NC(=O)Cn2cc(C(=O)c3cccs3)c3ccccc32)cc1	-5%
CCn1c(=O)n(-c2ccc3c(c2)OCO3)c2nc(-c3ccc(C(C)C)cc3)nc(C(N)=O)c21	2%
CCc1ccc(C(=O)N2CC(c3nnc(C(C)C)o3)C3(CCOCC3)C2)cc1 (stereo not drawn)	0%
Cn1ncc(N2CCCC(C(=O)NCCCc3ccccc3)C2)cc1=O (stereo not drawn)	1%
CC(C)c1ccccc1-c1nc(NCc2ccc(-c3cccnc3)cc2)c2ccccc2n1	i
O=S(=O)(O)CCS	-16%

Copied from the listing, seven compounds:
SMILES	nsP2pro inh
COc1ccc(Cl)cc1NC(=O)CSC1=Nc2ccccc2C2=NC(CC(=O)NC3CCCCC3)C(=O)N12 (stereo not drawn)	-8%
CCC(NS(=O)(=O)c1ccc(C(=O)NC2CC2)cc1)c1cnn(C)c1 (stereo not drawn)	-6%
CCOC(=O)c1ccc(NC(=O)Cn2cc(C(=O)c3cccs3)c3ccccc32)cc1	-5%
CCn1c(=O)n(-c2ccc3c(c2)OCO3)c2nc(-c3ccc(C(C)C)cc3)nc(C(N)=O)c21	2%
CCc1ccc(C(=O)N2CC(c3nnc(C(C)C)o3)C3(CCOCC3)C2)cc1 (stereo not drawn)	0%
Cn1ncc(N2CCCC(C(=O)NCCCc3ccccc3)C2)cc1=O (stereo not drawn)	1%
CC(C)c1ccccc1-c1nc(NCc2ccc(-c3cccnc3)cc2)c2ccccc2n1	i
